High-throughput results: PubChem BioAssay, several laboratories
GALR2 ag = agonists of human galanin receptor 2 (GALR2); O43603; GALR2-expressing cells, agonist activation read-out; activation, %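 (tested at 5 µM)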; 140,000 compounds, 0.48% hits;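 active = above mean plus 3 SD of all compounds, about 5% in these data, not always enough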;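 note: 0% = vehicle buffer wells and 100% = reference agonist at full effect; tested in CHO reporter cells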
Target sequence (O43603 whole entry, looked up): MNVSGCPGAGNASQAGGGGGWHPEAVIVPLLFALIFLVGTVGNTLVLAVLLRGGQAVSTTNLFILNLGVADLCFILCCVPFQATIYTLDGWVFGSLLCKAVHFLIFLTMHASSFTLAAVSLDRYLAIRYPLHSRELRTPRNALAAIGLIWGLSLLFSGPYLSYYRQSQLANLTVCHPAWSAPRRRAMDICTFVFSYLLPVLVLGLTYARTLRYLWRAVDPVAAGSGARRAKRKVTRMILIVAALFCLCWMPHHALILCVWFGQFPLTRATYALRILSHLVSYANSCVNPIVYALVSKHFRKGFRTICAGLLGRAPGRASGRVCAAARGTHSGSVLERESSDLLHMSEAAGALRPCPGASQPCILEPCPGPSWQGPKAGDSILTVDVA
PKD1 kinase inh = blocks activity of human protein kinase D1; inhibition, %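 (about 10 µM by stock and volumes)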; Q15139; AID 797; 200,000 compounds, 0.056% hits; PKD1 kinase fluorescence polarization assay;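 active = inhibition of 50% or more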;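 note: controls were vehicle for no effect and a reference inhibitor for full effect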
HSV augment = HSV replication enhancement; HSV replication augmentation in cells, fold increase; maximum fold increase; 220,000 compounds, 0.005% hits;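 active = peak rise of 1.5-fold or more in the series; tested in PC3 cells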;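 note: first round at 10 µM; read as green reporter fluorescence; hits show the peak of a series up to 25 µM; 1 = signal of infected wells without compound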
RGS16-Gao HTS = modulates binding between human RGS16 and Galphao. bead-based flow cytometry RGS16-Galphao binding, fluorescence; actives lie on both sides. binding response (% of control), % at 10 µM. 220,000 compounds, 0.38% hits. AID 1441;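 active = below 25% or above 175%, edge rows of some plates excepted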;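 note: Galphao activated by GDP with aluminum fluoride before binding; 100% = wells without compound and 0% = beads without RGS; some results beyond the cut were filed as inactive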
Target sequence (O15492 whole entry, looked up): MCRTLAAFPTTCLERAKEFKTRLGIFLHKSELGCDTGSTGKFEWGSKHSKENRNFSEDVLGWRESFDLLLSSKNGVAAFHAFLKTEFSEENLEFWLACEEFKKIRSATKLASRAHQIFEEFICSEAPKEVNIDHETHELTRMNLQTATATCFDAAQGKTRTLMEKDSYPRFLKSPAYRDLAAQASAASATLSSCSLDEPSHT
Target sequence (P09471 whole entry, looked up): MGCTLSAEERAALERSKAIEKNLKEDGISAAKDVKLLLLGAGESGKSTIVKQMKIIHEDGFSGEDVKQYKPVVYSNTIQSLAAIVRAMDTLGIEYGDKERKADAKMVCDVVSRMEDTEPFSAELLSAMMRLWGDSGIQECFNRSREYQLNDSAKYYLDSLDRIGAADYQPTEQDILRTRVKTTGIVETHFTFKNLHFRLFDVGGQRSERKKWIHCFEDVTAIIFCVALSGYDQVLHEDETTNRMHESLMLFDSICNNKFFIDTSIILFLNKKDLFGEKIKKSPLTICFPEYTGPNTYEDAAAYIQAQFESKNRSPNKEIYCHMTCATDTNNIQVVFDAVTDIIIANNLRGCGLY
INS promoter inh = TRM-6 insulin promoter activity inhibition; TRM-6 cells (human fetal islet line), insulin promoter-eGFP reporter, imaging; reporter expression induced with tamoxifen; inhibition, % at 2 µM; 130,000 compounds, 0.9% hits;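 active = inhibition above the mean plus 3 SD, with well images judged a real hit on visual review, cut at about 60% in these data, passing the limit was not always enough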
INS promoter inh cell count = recorded beside INS promoter inh, whose call it bears; normalized cell count, %; measured here: cell count, toxicity; reference of the scale not given here;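 cells exposed to compound for 48 h; stained nuclei by imaging scaled within each plate; lower means fewer cells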
HSV augment primary fold = recorded beside HSV augment, whose call it bears; fold increase; compound at 10 µM; measured here: primary screen fold increase 10 uM; tested in PC3 cells;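 GFP signal in the first replicate; 1 = infected wells without compound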
* hit, by the source's call; i = inactive; . = not tested or not shown.

Molecule	GALR2 ag	PKD1 kinase inh	HSV augment	HSV augment primary fold	RGS16-Gao HTS	INS promoter inh	INS promoter inh cell count
CC(=O)N[C@H]1C[C@@H]1c1ccccc1	-1.3	-6	i	1	98	-338	43
Cc1ccc(CSc2nnc(-c3ccc(NS(=O)(=O)c4ccccc4)cc3)o2)cc1	-0.6	-4	i	1	96	20	92
CCCc1cc(=O)n2c([nH]c3ccccc32)c1C#N	-0.2	-8	i	0.69	100	-7	149
Cc1nn(-c2ccccc2)c(C)c1CCC(=O)O	-1.4	1	i	0.66	103	.	.
COC(=O)CN(c1cc(Cl)ccc1OC)S(=O)(=O)c1ccc(C)cc1	.	.	i	0.85	94	.	.
O=C(COc1cccc2cccnc12)N/N=C/c1cccn1-c1ccc(F)cc1	.	.	i	0.82	94	.	.
COc1ccc(-c2nc(C#N)c(N3CCOCC3)o2)cc1OC	-1.7	-6	i	0.91	102	-4	111
Cc1ccc(NC(=O)CCSCCC(=O)Nc2ccc(C)c(C)c2)cc1C	-0.3	3	i	0.98	97	-3	82
O=[N+]([O-])c1ccc(C(O)CNC(=S)Nc2ccccc2)cc1 (centres undefined)	.	2	i	0.93	93	13	144
CN(C)CC(O)COC(c1ccccc1)c1ccccc1 (centres undefined)	.	3	i	1	111	0	61
Cc1sc2nc(C)n(/N=C/c3ccccc3O)c(=O)c2c1C	-1.9	-3	i	0.94	95	-25	167
COc1ccc(N2CC(=O)N(c3ccccc3)C2=S)cc1	-0.2	2	i	1	102	.	.
CC(=O)Nc1sc(NC(=O)c2ccccc2)nc1-c1cccs1	-2.1	6	.	.	97	32	79
O=C(CCNc1cc(Cl)cc(Cl)c1)c1cccs1	-1.2	5	i	0.87	101	.	.
CCCCC(=O)NC1(C(F)(F)F)NC(=O)N(C)C1=O (centres undefined)	.	.	i	0.88	93	.	.
CCN1C(=O)N(C)[C@@H](c2ccccc2)C(C(=O)OC)=C1C	.	.	i	1.1	101	.	.
COc1ccc(Cn2c(SCc3cc(C)ccc3C)nc3cc(OC)c(OC)cc3c2=N)cc1	-0.4	5	i	0.48	101	3	78
CN(C)CCCNC(=O)c1cc(C(=O)C2CCCCC2)c[nH]1	.	5	i	1	103	.	.
O=C(Nc1ccc(Cl)cc1)c1csc(-c2ccncc2)n1	.	-11	i	0.88	101	.	.
Cc1cccc(C=Nc2ccc3c4c(cccc24)CC3)c1O	-0.3	2	i	1.9	188	.	.
CCN(CC)C(=O)Oc1c(Cl)cc(Cl)c2cccnc12	.	-4	i	0.86	101	.	.
CCOc1ccc(CNC(=O)CCCOc2cc(=O)n(C)c3ccccc23)cc1	-0.5	-1	i	0.83	103	47	86
CCNc1nc(NCC)nc(N/N=C/c2cc(OC)c(OC)c(OC)c2)n1	.	.	i	0.88	101	.	.
S=c1sc(SCCOc2ccccc2)nn1-c1ccccc1	-1.0	-5	i	0.99	96	-233	134
CCN(CC)CCOc1ccc2c(c1)C(=NO)c1cc(OCCN(CC)CC)ccc1-2	-1.2	1	i	0.52	96	-5	54
CCN1C=C(Cc2cccs2)C2=C(C1)C(c1cccs1)C(C#N)=C(N)O2 (centres undefined)	-1.1	-6	i	0.98	94	.	.
O=C(O)C1OC2OC3(CCCCC3)OC2C2OC3(CCCCC3)OC12 (centres undefined)	-1.6	-7	i	0.96	97	3	63
Cc1ccc(N2CCN(c3ccc(C)cc3)C(CC(=O)O)C2=O)cc1 (centres undefined)	-0.2	-14	i	0.99	82	44	98
CCN(CC)S(=O)(=O)c1ccc(S(=O)(=O)N2CCCC2C(=O)O)cc1 (centres undefined)	-1.2	0	i	0.84	103	-33	69
Fc1cc(F)c2nc(N3CCOCC3)sc2c1	1.0	0	i	1.1	101	.	.
CCC(=O)Nc1sc(C(=O)OC)c(C)c1C(=O)OC	-1.0	2	i	0.89	104	.	.
COC(CNC(=O)c1cc(Sc2nnc(C)s2)nc2ccccc12)OC	-1.2	-7	i	1	103	23	95
CCC1=C(OC(=O)N(CC)CC)N2C(=O)OC(=NCC(=O)OC)[C@]2(C)[C@H]2C1=CC[C@H]1C(=O)N(CC(=O)OC)C(=O)[C@H]12	.	.	i	1	97	.	.
CCOc1ccc(C(=O)NCC(=O)OCC(=O)N2CCC(C)CC2)cc1	-2.2	-4	i	1	98	-13	103
Cc1ccc(S(=O)(=O)N2CCN(C(=O)c3ccccc3)C2)cc1[N+](=O)[O-]	.	-1	i	0.7	108	0	97
CN(C)C(=O)CN(C)S(=O)(=O)c1ccc(Cl)cc1	-0.6	0	i	0.92	100	36	70
CCOc1ccc(C(C(=O)NC2CCCCC2)N(C(=O)Cc2cccs2)c2ccc(-n3cnnn3)c(OC)c2)cc1 (centres undefined)	1.3	-7	i	0.64	100	.	.
CCn1c(C)c(C(C)=O)c(N2CCCCC2)nc1=S	-2.0	-5	i	1.1	95	64	46
C=CCn1c(=S)sc2c(=O)[nH]cnc21	.	.	i	1	101	.	.
O=C(CCCC(=O)OCC(=O)c1cccs1)Nc1ccc(Oc2ccccc2)cc1	0.4	6	i	0.94	98	7	155
NCC(O)COCCC12CC3CC(CC(C3)C1)C2 (centres undefined)	-2.0	-8	i	0.86	134	15	90
COC(=O)[C@H](CCSC)NC(=O)Nc1cccc(C)c1C	.	.	i	1.2	99	.	.
O=C(O)c1cnc(N2CCOCC2)nc1	.	-7	i	0.9	102	.	.
CN(C)c1ccc(/C(=N\O)C(F)(F)F)cc1	-2.5	3	i	0.83	100	-6	102
Cc1cccc(OCC(=O)NCC(=O)N/N=C/c2cccnc2)c1	.	.	i	1.1	110	.	.
Cn1ccnc1SCCC#N	-1.1	-6	i	0.96	99	.	.
CCC(=O)N1CCc2cc(S(=O)(=O)NC(C(=O)NCc3ccccc3)C(C)C)ccc21 (centres undefined)	-3.1	-2	i	0.94	111	.	.
NNC(=O)c1csc(COc2cc(Cl)cc(Cl)c2)n1	.	.	i	0.94	80	.	.
COc1ccccc1NC(=O)CC1COc2ccccc2O1 (centres undefined)	-0.4	-7	i	1	100	-3	91
CCN(CCO)C(=O)C12CCC(C)(C(=O)C1)C2(C)C (centres undefined)	-1.5	3	i	0.99	103	70	87
CCc1ccc(NC(=O)C(CC)c2ccccc2)cc1 (centres undefined)	0.1	-6	i	0.88	102	50	159
Cc1cc(C)nc(NC(=O)Cc2ccc(Br)cc2)n1	.	12	i	0.99	101	43	92
CC(=O)Nc1nc(C)nc(C)c1C(C)=O	-4.7	1	i	0.97	101	-129	175
COc1cc(NC(=O)c2cccnc2Sc2ccc(Cl)cc2)cc(OC)c1OC	-1.2	-6	i	0.85	82	0	107
O=c1[nH]c(CN2CCOCC2)nc2ccccc12	.	-7	i	1	99	20	112
COc1ccc(C(=O)COc2ccc(F)cc2)c(O)c1C	.	-3	i	0.99	95	.	.

(listing goes on)
Molecule	GALR2 ag	PKD1 kinase inh	HSV augment	HSV augment primary fold	RGS16-Gao HTS	INS promoter inh	INS promoter inh cell count
Cc1nn(-c2ccccc2)c(N)c1N=Nc1cccnc1	.	-2	i	0.91	104	0	129
Nc1ncc2c(n1)-c1ccccc1CC2	.	-1	i	0.9	100	.	.
O=C(COC(=O)CCc1nc2ccccc2c(=O)[nH]1)Nc1ccc2c(c1)OCO2	.	.	i	1.1	93	.	.
O=C(CNC(=O)c1ccccc1Cl)Nc1ccc(F)cc1	-1.0	-7	i	1	99	.	.
COCCOn1c(SCCOC)nc2ccccc2c1=O	.	.	i	1.1	102	.	.
O=C(Cn1cnc2scc(-c3ccccc3)c2c1=O)NCc1ccco1	.	-5	i	0.97	97	.	.
CCCCCN(C(=O)NC(=O)Nn1cnnc1)S(C)(=O)=O	-0.5	1	i	0.92	56	.	.
COc1ccc(C)cc1NC(=O)C1CC(=O)N(CCc2ccccc2)C1 (centres undefined)	.	-6	i	0.94	100	-8	104
N#Cc1c(=O)c2nc(NCc3ccccc3)ncc2n2ccccc12	-1.3	-5	i	0.98	101	-2	90
COC(=O)c1ccc(N)cc1O	-1.1	3	i	1.1	79	-33	127
Cc1ccccc1-c1ccc(=O)n(CC(=O)Nc2ccc(N3CCOCC3)cc2)n1	-2.1	-12	i	0.93	.	.	.
NC(=O)NCCCC(NC(=O)c1ccc(C#CC2(O)CCCCC2)cc1)C(=O)O (centres undefined)	.	-3	i	1.1	112	.	.
O=C(Nc1ccc(S(=O)(=O)Nc2nccs2)cc1)c1cccc(S(=O)(=O)N2CCOCC2)c1	.	.	i	1	104	.	.
CCOC(=O)Cn1c(CN2CCOCC2)nc2c1c(=O)n(C)c(=O)n2C	-1.0	-1	i	1	102	.	.
Cc1onc(-c2c(F)cccc2Cl)c1-c1nnc(-c2cccc3ccccc23)o1	.	.	i	1	104	.	.
CC12CN(C(=O)c3ccc(Cl)cc3)C3(C#N)CC1CCC23C (centres undefined)	0.1	-1	i	0.83	111	-31	39
CCOC(=O)C1CCN(C(=O)CSc2ccc(Cl)cc2)CC1	-3.3	-1	i	0.89	8.3*	-67	130
S=C(NCCc1ccc(Cl)cc1)NC1CCCC1	.	3	i	0.83	100	6	99
CC(=O)N1CCc2cc3nc(C)cc(C)c3cc21	-0.2	3	.	.	102	-80	140
CC1=NN(C(=S)Nc2ccccc2)C(C)(C)C1	.	3	i	0.97	101	.	.
Cc1cc(C)cc(NC(=S)N2CCN(c3ncc(C(F)(F)F)cc3Cl)CC2)c1	.	.	i	0.96	106	.	.
O=C(COC(=O)CNS(=O)(=O)c1ccccc1)Nc1ccc(Cl)cn1	-2.9	-3	i	1	94	0	84
CCCCn1nnnc1NCc1cccs1	-1.4	-12	i	1	99	5	143
O=C1CC(c2ccc(S(=O)(=O)NCc3ccccc3)cc2)CN1 (centres undefined)	-1.5	-2	i	1.1	73	.	.
CCOC(=O)C1CCCCN1Cc1ccc(F)cc1 (centres undefined)	-1.4	-4	i	0.98	109	3	162
Cc1ccc(/C=N/Nc2nc(C(C)(C)C)cs2)o1	0.0	-5	i	0.97	95	-6	108
O=C(CCSCCc1ccccn1)Nc1cccc([N+](=O)[O-])c1	.	8	i	0.96	100	-57	144
CN(C)CCNc1ncnc2ccccc12	-1.9	5	i	1.1	102	-3	114
CC(C)(CO)NCc1ccccc1OCC(=O)Nc1ccccc1	-3.5	11	i	0.96	98	-197	57
CCc1ccc(NC(=S)NCc2cccnc2)cc1	.	.	i	0.87	92	.	.
Cc1ccc(S(=O)(=O)N2CCOCC2)cc1NC(=O)COC(=O)c1cc(=O)c2ccccc2o1	-2.1	-12	.	.	131	46	78
CCN(CC)CCN1C(=O)C(=O)/C(=C(/O)c2ccccc2)C1c1ccccc1F (centres undefined)	-2.1	-11	i	0.95	103	-42	119
Cc1c(C(=O)N2CCC(Cc3ccccc3)CC2)sc2ncnc(N3CCC(C)CC3)c12	.	0	i	0.89	101	-43	141
CCN(CC)CCN1C(=O)c2ccccc2NC1c1cc(OC)c(OC)c(OC)c1 (centres undefined)	0.2	-1	i	0.93	105	-78	51
CC(C)c1ccc(NC(=O)C2CCCCC2C(=O)O)cc1 (centres undefined)	0.1	-1	.	.	103	-9	66
CC(C)N(C(=O)CSc1nnc(NC(=O)Cc2cccs2)s1)C(C)C	.	-10	i	0.98	98	.	.
O=C(NC1CCS(=O)(=O)C1)c1cccc(S(=O)(=O)N2CCCCCC2)c1 (centres undefined)	.	2	i	1.1	107	.	.
